rRNA inh HTS: inhibits bacterial ribosomal RNA function over humanized ribosomes. E. coli WT GFP vs humanized-ribosome RFP mutants, fluorescence, 24 h; hits give low values; DMSO median 0, no signal -100. GFP signal change (wild-type ribosome), % (concentration not given with the values). actives 1.6% (n = 350,000). AID 720706;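 active = significant combined selectivity score with lowered wild-type GFP, culture density cut under 30%, mutant RFP and density less affected; inactive = any of these conditions unmet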; also: one replicate is shown; some compounds called inactive have numbers as strong as hits
rRNA inh HTS OD600: second read-out of rRNA inh HTS, no call of its own (marks repeat the call); OD600 change, %; measured here: OD600 growth;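 optical density of the mix in the first replicate; 0 = DMSO median and -100 = no signal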
rRNA inh HTS RFP: further read-out of rRNA inh HTS, marked with its call; RFP signal change, %; measured here: RFP humanized mutant strains;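 first replicate; 0 = DMSO median and -100 = no signal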
The depositor's hits bear a star; & = joins results of further samples. Not all compounds are listed; rates above refer to the full screens.

rRNA inh HTS | rRNA inh HTS OD600 | canonical_smiles | rRNA inh HTS RFP
-3 | 0 | C[C@@H]1CCCCO[C@@H](CN(C)S(=O)(=O)c2ccc(Cl)cc2)[C@@H](C)CN([C@H](C)CO)C(=O)c2cc(NS(=O)(=O)c3cn(C)cn3)ccc2O1 | 0.1
1 | -1 | Cc1cc(C)n2c(Nc3c(C)cccc3C)c(CCc3ccccc3)nc2n1 | 0.7
0 | -8 | CCCC(=O)Nc1ccc2c(c1)C(=O)N(C)C[C@@H](OC)[C@H](C)CN(CC1CCCC1)[C@@H](C)CO2 | 4.1
2 | 6 | COc1ccc2c3c([nH]c2c1)[C@H](CO)N(C(=O)c1ccncc1)CC31CCN(C)CC1 | -2.0
-8 | -6 | Cc1noc(C)c1S(=O)(=O)N(C)C[C@@H]1Oc2ccc(NC(=O)Cc3cn(C)c4ccccc34)cc2CC(=O)N([C@@H](C)CO)C[C@H]1C | -2.3
2 | 6 | COc1ccc2c3c(n(C)c2c1)[C@H](CO)N(Cc1nccs1)CC31CN(C)C1 | 0.5
22 | 20 | O=S(=O)(NCc1ccncc1)c1ccc(F)c(F)c1 | 1.3
3 | -5 | CO[C@@H]1CN(C)C(=O)c2ccc(NC(=O)c3ccno3)cc2OC[C@@H](C)NC[C@@H]1C | 0.6
0 | -3 | C[C@@H]1CN([C@H](C)CO)C(=O)c2cc(NC(=O)Cc3ccccc3)ccc2O[C@@H](C)CCCCO[C@H]1CN(C)S(=O)(=O)c1ccc(F)cc1 | 8.1
-1 | 4 | C[C@H](CO)N1C[C@H](C)[C@H](CN(C)Cc2cccnc2)Oc2ncc(-c3ccc(F)cc3)cc2C1=O | 0.1
0&0 | -14&-4 | C[C@H](CO)N1C[C@H](C)[C@@H](CN(C)C(=O)NC2CCCC2)Oc2cc(Br)ccc2S1(=O)=O | -4.8&1.7
4 | 4 | C[C@@H]1CN([C@H](C)CO)S(=O)(=O)c2ccc(-c3ccccc3)cc2O[C@H]1CN(C)C(=O)CN(C)C | 1.3
2 | 16 | Cc1ccc(S(=O)(=O)N[C@@H]2C=C[C@H](CC(=O)NCCCN(C)C)O[C@@H]2CO)cc1 | -1.6
-42 | -62 | C[C@@H]1CN([C@@H](C)CO)S(=O)(=O)c2ccc(C3=CCCCC3)cc2O[C@@H]1CN(C)Cc1cccnc1 | -0.1
-56 | -74 | CC1(C(=O)NCCc2c[nH]c3ccccc23)CCN1Cc1ccccc1OC(F)F (stereo unspecified) | -17
-4 | 12 | C[C@@H]1CN([C@H](C)CO)C(=O)c2cc(NC(=O)CCCCCC(=O)Nc3ccccc3N)ccc2O[C@H]1CN(C)S(=O)(=O)c1cccs1 | 1.5
-28 | -80 | COc1ccccc1CCn1cnc(Cc2cccc(F)c2)c1C(C)C | -22
1 | 4 | C[C@@H]1CN([C@@H](C)CO)C(=O)c2cccc(NS(=O)(=O)c3ccc(F)cc3)c2O[C@H]1CN(C)C | 2.0
5 | 15 | O=C(c1ccncc1)N1C[C@@H]2[C@H](c3ccccc31)[C@@H](CO)N2C(=O)CN1CCOCC1 | -0.5
1 | 3 | C[C@H](CO)N1C[C@H](C)[C@@H](CN(C)Cc2ccccc2)Oc2ccc(NS(=O)(=O)c3cccs3)cc2C1=O | 0.9
4 | 0 | C[C@@H]1CCCCO[C@@H](CN(C)Cc2ccc3c(c2)OCO3)[C@@H](C)CN([C@H](C)CO)C(=O)c2cc(NC(=O)c3ccncc3)ccc2O1 | -1.6
1 | -3 | COCCNC(=O)c1cc2c(c(-c3cccc(-c4ccc(C#N)cc4)c3)n1)[C@H](CCO)N(C(=O)CC1CC1)C2 | -1.4
2 | 6 | O=C(c1ccccn1)N1CC2(C1)[C@H](c1ccccc1)[C@@H](CO)N2C(=O)C1CCC1 | -0.9
-12 | -25 | C[C@@H]1CN([C@@H](C)CO)S(=O)(=O)c2ccc(C#CC3CC3)cc2O[C@H]1CN(C)CC1CCOCC1 | 6.5
6 | 14 | C[C@@H]1CN([C@H](C)CO)C(=O)c2cc(C#CC3CC3)cnc2O[C@@H]1CN(C)S(C)(=O)=O | -2.0
22 | 7 | COc1ccccc1NC(=O)OC[C@@H]1CSCCS(=O)(=O)N1 | 5.4
2 | 12 | CC(C)(O)C#Cc1ccc([C@@H]2[C@@H](CO)N3CCCCN(C(=O)c4cccc(F)c4)C[C@@H]23)cc1 | -0.2
-5 | 2 | C[C@@H]1CCCCO[C@H](CN(C)Cc2ccncc2)[C@H](C)CN([C@H](C)CO)C(=O)c2cc(NS(=O)(=O)c3cccs3)ccc2O1 | -2.0
-22 | -45 | C/C=C/c1ccc2c(c1)O[C@@H](CN(C)Cc1ccccc1F)[C@H](C)CN([C@H](C)CO)S2(=O)=O | 21
-10 | -36 | CCCNC(=O)N(C)C[C@@H]1Oc2cc(C#Cc3cccc(F)c3)ccc2S(=O)(=O)N([C@@H](C)CO)C[C@@H]1C | 16
9 | 13 | Cc1cccc(C)c1NC(=O)C1(C)CSCC(=O)N1CCCN1CCOCC1 (stereo unspecified) | -1.9
4&6 | -2&0 | C[C@@H]1CN([C@H](C)CO)C(=O)c2cc(Br)cnc2O[C@@H]1CN(C)C(=O)c1cccc(F)c1 | -1.3&-2.2
3 | 3 | C[C@@H]1CN([C@H](C)CO)C(=O)CCCn2cc(nn2)CO[C@@H]1CN(C)CC1CCCC1 | -1.0
2 | 8 | C[C@@H]1CCCCO[C@H](CN(C)S(=O)(=O)c2ccc(Cl)cc2)[C@H](C)CN([C@H](C)CO)C(=O)c2cc(NC(=O)NC3CCCCC3)ccc2O1 | -0.9
-1 | 12 | CC(C)C#Cc1cnc2c(c1)C(=O)N([C@@H](C)CO)C[C@H](C)[C@H](CN(C)C(=O)c1cccc(F)c1)O2 | -0.3
4 | 8 | C[C@@H]1CCCCO[C@H](CN(C)C(=O)Nc2ccc(C(F)(F)F)cc2)[C@@H](C)CN([C@@H](C)CO)C(=O)c2cc(NC(=O)Nc3cccc4ccccc34)ccc2O1 | 1.0
0 | -13 | COc1ccc2c(c1)C(=O)C1(CC2)OC1c1cccnc1 (stereo unspecified) | -2.0
4 | 6 | COc1ccc(S(=O)(=O)Nc2ccc3c(c2)C(=O)N([C@H](C)CO)C[C@@H](C)[C@@H](CN(C)C(=O)NC(C)C)O3)cc1 | -1.5
0 | -10 | COc1ccc(NC(=O)N[C@@H]2CC[C@H](CCn3cc(-c4ccc(F)cc4)nn3)O[C@@H]2CO)cc1 | 2.1
0 | -11 | Cc1ccc(S(=O)(=O)N(C)C[C@H]2Oc3ccc(NS(=O)(=O)c4ccc(F)cc4)cc3C(=O)N([C@H](C)CO)C[C@H]2C)cc1 | 1.6

Another view of some results above:
| SMILES | rRNA inh HTS | rRNA inh HTS OD600 | rRNA inh HTS RFP |
| --- | --- | --- | --- |
| C[C@@H]1CCCCO[C@@H](CN(C)Cc2ccc3c(c2)OCO3)[C@@H](C)CN([C@H](C)CO)C(=O)c2cc(NC(=O)c3ccncc3)ccc2O1 | 4 | 0 | -1.6 |
| COCCNC(=O)c1cc2c(c(-c3cccc(-c4ccc(C#N)cc4)c3)n1)[C@H](CCO)N(C(=O)CC1CC1)C2 | 1 | -3 | -1.4 |
| O=C(c1ccccn1)N1CC2(C1)[C@H](c1ccccc1)[C@@H](CO)N2C(=O)C1CCC1 | 2 | 6 | -0.9 |
| C[C@@H]1CN([C@@H](C)CO)S(=O)(=O)c2ccc(C#CC3CC3)cc2O[C@H]1CN(C)CC1CCOCC1 | -12 | -25 | 6.5 |
| C[C@@H]1CN([C@H](C)CO)C(=O)c2cc(C#CC3CC3)cnc2O[C@@H]1CN(C)S(C)(=O)=O | 6 | 14 | -2.0 |
| COc1ccccc1NC(=O)OC[C@@H]1CSCCS(=O)(=O)N1 | 22 | 7 | 5.4 |
| CC(C)(O)C#Cc1ccc([C@@H]2[C@@H](CO)N3CCCCN(C(=O)c4cccc(F)c4)C[C@@H]23)cc1 | 2 | 12 | -0.2 |
| C[C@@H]1CCCCO[C@H](CN(C)Cc2ccncc2)[C@H](C)CN([C@H](C)CO)C(=O)c2cc(NS(=O)(=O)c3cccs3)ccc2O1 | -5 | 2 | -2.0 |
| C/C=C/c1ccc2c(c1)O[C@@H](CN(C)Cc1ccccc1F)[C@H](C)CN([C@H](C)CO)S2(=O)=O | -22 | -45 | 21 |
| CCCNC(=O)N(C)C[C@@H]1Oc2cc(C#Cc3cccc(F)c3)ccc2S(=O)(=O)N([C@@H](C)CO)C[C@@H]1C | -10 | -36 | 16 |
| Cc1cccc(C)c1NC(=O)C1(C)CSCC(=O)N1CCCN1CCOCC1 (stereo unspecified) | 9 | 13 | -1.9 |
| C[C@@H]1CN([C@H](C)CO)C(=O)c2cc(Br)cnc2O[C@@H]1CN(C)C(=O)c1cccc(F)c1 | 4&6 | -2&0 | -1.3&-2.2 |

New compounds follow
rRNA inh HTS | rRNA inh HTS OD600 | canonical_smiles | rRNA inh HTS RFP
3 | 3 | C[C@@H]1CCCCO[C@H](CN(C)Cc2ccc(Cl)c(Cl)c2)[C@@H](C)CN([C@H](C)CO)C(=O)c2cc(NC(=O)Nc3cccc4ccccc34)ccc2O1 | 2.3
2 | 0 | CC(C)NC(=O)Nc1ccc2c(c1)C(=O)N(C)[C@@H]1CC[C@@H](CC(=O)NCC(F)(F)F)O[C@@H]1CO2 | 1.4
-2 | -5 | C[C@@H]1CN([C@@H](C)CO)C(=O)c2cccc(NC(=O)c3nc4ccccc4s3)c2O[C@H]1CN(C)S(=O)(=O)c1ccc(Cl)cc1 | -2.5
1 | -4 | CC(C)NC(=O)N1[C@@H]2Cn3c(cccc3=O)[C@H]1[C@@H](C(=O)N1CCC(Cc3ccccc3)CC1)[C@@H]2CO | -0.8
1 | 12 | CNC[C@H]1Oc2cc(-c3cncnc3)ccc2S(=O)(=O)N([C@@H](C)CO)C[C@@H]1C | 3.4
2 | 6 | C[C@@H]1CN([C@@H](C)CO)C(=O)c2cccc(NC(=O)CCCCCC(=O)Nc3ccccc3N)c2O[C@@H]1CN(C)S(=O)(=O)c1ccccc1 | -2.1
2 | 7 | C[C@H](CO)N1C[C@H](C)[C@@H](CN(C)Cc2ccc(Oc3ccccc3)cc2)Oc2ccc(NC(=O)Nc3ccc(C(F)(F)F)cc3)cc2CC1=O | 1.4
-1 | 3 | COc1cccc(S(=O)(=O)N[C@@H]2CC[C@H](CC(=O)NCc3ccncc3)O[C@H]2CO)c1 | 2.4
3 | -2 | CC(C)NC(=O)N(C)C[C@@H]1Oc2ccc(NS(=O)(=O)c3cn(C)cn3)cc2C(=O)N([C@@H](C)CO)C[C@@H]1C | -1.1
2 | -6 | C[C@@H]1CN([C@@H](C)CO)C(=O)Cc2cc(NC(=O)NC3CCCCC3)ccc2O[C@@H]1CN(C)Cc1ccc(C(=O)O)cc1 | -4.0
4 | 10 | COc1ccc(NC(=O)Nc2ccc3c(c2)C(=O)N([C@H](C)CO)C[C@@H](C)[C@H](CN(C)S(=O)(=O)c2ccc(OC)cc2)OCCCC[C@@H](C)O3)cc1 | -3.6
0 | 1 | CO[C@H]1CN(C)C(=O)c2cc(NC(=O)Cc3ccccc3)ccc2OC[C@@H](C)N(CC2CC2)C[C@H]1C | -1.3
5 | 13 | CC1(C(=O)O)CCCN1C(=O)c1cccc(OC(F)(F)F)c1 (stereo unspecified) | -0.3
-5 | -23 | CN1C(=O)c2cc(NC(=O)NCc3ccccc3)ccc2OC[C@@H]2O[C@H](CC(=O)NCC3CCCCC3)CC[C@H]21 | -0.9
3 | 11 | COc1cccc(CN2CC3(CN(CC4CC4)C3)c3c([nH]c4cc(OC)ccc34)[C@@H]2CO)c1 | 0.9
1 | 4 | NCC[C@@H]1CC[C@@H](NS(=O)(=O)Cc2ccccc2)[C@H](CO)O1 | -1.7
-16 | -58 | C[C@H](CO)N1C[C@H](C)[C@@H](CN(C)Cc2ccc(C(F)(F)F)cc2)Oc2ccc(NC(=O)Cn3cnnn3)cc2CC1=O | 24
-6 | -22 | CCCN1C[C@@H](C)[C@H](OC)CN(C)C(=O)c2ccc(NC(=O)Nc3cccc(F)c3)cc2OC[C@@H]1C | 9.5
1 | -21 | C/C=C/c1ccc(C2[C@@H]3CN(Cc4cccc(OC)c4)C[C@H]2N3)cc1 (stereo partly specified) | 5.9
3 | 3 | COC(=O)[C@]12C[C@H](CC(=O)N3CCN(C(=O)c4ccco4)CC3)C(=O)N(Cc3ccccc3)C1=C[C@H](C(C)C)O[C@@H]2C1CC1 | 2.4
1 | -1 | C[C@H]1CN([C@@H](C)CO)S(=O)(=O)c2ccc(/C=C/c3ccccc3)cc2O[C@H]1CN(C)C | 0.9
-21 | -61 | C[C@H](CO)N1C[C@H](C)[C@@H](CN(C)Cc2ccc(C(F)(F)F)cc2)Oc2ccc(NS(C)(=O)=O)cc2CC1=O | 17
-18 | -23 | O=C(OCc1ccccc1)N1CCCCC1c1c(Cl)cccc1Br (stereo unspecified) | -6.8
-1 | 10 | Cc1cc(C(=O)Nc2cccc3c2O[C@H](CN(C)Cc2ccc(C(=O)Nc4ccccc4N)cc2)[C@@H](C)CN([C@H](C)CO)C3=O)n(C)n1 | -3.8
-11 | -8 | CC(C)c1ccc(NC(=O)Nc2nnc([C@H]3C[C@H](O)[C@@H](CO)O3)s2)cc1 | -0.1
7 | 2 | CNC[C@H]1OCCCC[C@H](C)Oc2ccc(NS(=O)(=O)c3ccc(OC)cc3)cc2C(=O)N([C@H](C)CO)C[C@@H]1C | -0.9
5 | 1 | Cc1noc(C)c1S(=O)(=O)Nc1ccc2c(c1)CC(=O)N([C@H](C)CO)C[C@H](C)[C@H](CN(C)C(=O)NC1CCCCC1)O2 | 1.2
13 | 13 | CCOC(=O)Cn1cc(Cn2c3ccccc3c(=O)n2C(C)C)nn1 | 2.2
0 | -1 | O=C(C[C@H]1C=C[C@H](NC(=O)CN2CCOCC2)[C@@H](CO)O1)NC1CCCCC1 | 1.7
2 | 11 | C[C@@H]1CN([C@H](C)CO)C(=O)c2cc(N(C)C)ccc2O[C@@H]1CN(C)S(=O)(=O)c1ccccc1 | -1.2
-5 | -3 | COc1cccc(-c2cnc3c(NC=O)cc(-c4cc(OC)c(OC)c(OC)c4)cn23)c1 | 10

Compound activity (PubChem BioAssay)
